Source: PubChem
GALR2 ag: activates the human galanin receptor 2 | O43603 | GALR2-expressing cells, agonist activation read-out | activation, %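 (tested at 5 µM)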 | 140,000 tested, 0.48% active | AID 803;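 active = above mean plus 3 SD of all compounds, about 5% in these data, not always enough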;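 also: 0% = vehicle buffer wells and 100% = reference agonist at full effect; tested in CHO reporter cells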
Target sequence (O43603 whole entry, looked up): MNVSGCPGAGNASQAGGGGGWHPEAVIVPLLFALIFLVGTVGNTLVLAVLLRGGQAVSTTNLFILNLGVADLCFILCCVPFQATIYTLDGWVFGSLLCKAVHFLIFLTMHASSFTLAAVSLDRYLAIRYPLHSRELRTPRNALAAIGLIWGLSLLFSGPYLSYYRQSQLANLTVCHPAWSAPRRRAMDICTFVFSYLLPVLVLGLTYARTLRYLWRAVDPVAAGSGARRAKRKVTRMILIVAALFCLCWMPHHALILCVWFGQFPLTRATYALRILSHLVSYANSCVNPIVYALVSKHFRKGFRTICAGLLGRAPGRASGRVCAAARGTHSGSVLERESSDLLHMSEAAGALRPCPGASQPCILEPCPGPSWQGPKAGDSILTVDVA
RGS16-Gao: RGS16-Galphao interaction regulator (human); bead-based flow cytometry RGS16-Galphao binding, fluorescence; actives lie on both sides; binding response (% of control), % at 10 µM; 220,000 tested, 0.38% active; AID 1441;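 active = below 25% or above 175%, edge rows of some plates excepted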;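 also: Galphao activated by GDP with aluminum fluoride before binding; 100% = wells without compound and 0% = beads without RGS; some results beyond the cut were filed as inactive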
Target sequence (O15492 whole entry, looked up): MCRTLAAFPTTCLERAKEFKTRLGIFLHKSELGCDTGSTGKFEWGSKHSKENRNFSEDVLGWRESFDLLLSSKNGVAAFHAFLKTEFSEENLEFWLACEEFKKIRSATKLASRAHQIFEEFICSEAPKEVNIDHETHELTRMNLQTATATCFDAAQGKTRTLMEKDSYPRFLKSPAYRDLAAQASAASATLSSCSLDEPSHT
Target sequence (P09471 whole entry, looked up): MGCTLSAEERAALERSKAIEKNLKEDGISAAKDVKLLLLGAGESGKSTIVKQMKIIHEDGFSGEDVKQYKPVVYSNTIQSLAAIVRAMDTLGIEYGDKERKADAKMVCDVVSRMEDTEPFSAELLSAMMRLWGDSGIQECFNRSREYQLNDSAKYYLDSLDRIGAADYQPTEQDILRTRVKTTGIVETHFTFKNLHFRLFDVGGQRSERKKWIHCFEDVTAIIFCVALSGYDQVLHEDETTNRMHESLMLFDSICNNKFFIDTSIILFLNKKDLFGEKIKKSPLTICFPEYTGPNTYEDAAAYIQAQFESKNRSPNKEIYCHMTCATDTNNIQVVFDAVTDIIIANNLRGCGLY
HSV replic up: HSV replication enhancement; HSV replication augmentation in cells, fold increase; maximum fold increase; 220,000 tested, 0.005% active;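 active = peak rise of 1.5-fold or more in the series; tested in PC3 cells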;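 also: first round at 10 µM; read as green reporter fluorescence; hits show the peak of a series up to 25 µM; 1 = signal of infected wells without compound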
PKD1 kinase inh: PKD1 (human) kinase inhibition | inhibition, %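 (about 10 µM by stock and volumes)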 | 200,000 tested, 0.056% active | PKD1 kinase fluorescence polarization assay;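 active = inhibition of 50% or more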;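 also: controls were vehicle for no effect and a reference inhibitor for full effect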
INS promoter inh: TRM-6 insulin promoter activity inhibition; TRM-6 cells (human fetal islet line), insulin promoter-eGFP reporter, imaging; reporter expression induced with tamoxifen; inhibition, % at 2 µM; 130,000 tested, 0.9% active; AID 1273;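 active = inhibition above the mean plus 3 SD, with well images judged a real hit on visual review, cut at about 60% in these data, passing the limit was not always enough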
INS promoter inh cell count: also measured in INS promoter inh; calls as there; normalized cell count, %; measured here: cell count, toxicity; reference of the scale not given here;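 cells exposed to compound for 48 h; stained nuclei by imaging scaled within each plate; lower means fewer cells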
HSV replic up primary fold: second read-out of HSV replic up, no call of its own (marks repeat the call); fold increase; compound at 10 µM; measured here: primary screen fold increase 10 uM; tested in PC3 cells;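 GFP signal in the first replicate; 1 = infected wells without compound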
An asterisk follows results filed as active; i = inactive; / = not tested or not shown.

Start of the listing, in advance (4 entries):
Screens in order: GALR2 ag	RGS16-Gao	HSV replic up	HSV replic up primary fold	PKD1 kinase inh	INS promoter inh	INS promoter inh cell count
CC(=O)c1c(C)[nH]c(C(=O)Nc2ccc3c(c2)OCCO3)c1C
    -1.0	93.9	i	1.01	-4.5	-66.7	115.7
CCCCCCNC(=O)CCCCCNS(=O)(=O)c1ccc(OC)cc1
    -1.7	42.1	i	0.9	-5.5	-33.3	117.7
CC(NC(N)=O)C12CC3CC(CC(C3)C1)C2 (stereo not given)
    -0.2	101.4	i	0.85	-3.5	31.6	162.5
O=C(CCN1C(=O)C2CCCCC2C1=O)Nc1nc(-c2ccc(F)c(F)c2)cs1 (stereo not given)
    /	108.6	i	0.88	2.2	8.3	161.1

Main list, repeating the preview:
Screens in order: GALR2 ag	RGS16-Gao	HSV replic up	HSV replic up primary fold	PKD1 kinase inh	INS promoter inh	INS promoter inh cell count
CC(=O)c1c(C)[nH]c(C(=O)Nc2ccc3c(c2)OCCO3)c1C
    -1.0	93.9	i	1.01	-4.5	-66.7	115.7
CCCCCCNC(=O)CCCCCNS(=O)(=O)c1ccc(OC)cc1
    -1.7	42.1	i	0.9	-5.5	-33.3	117.7
CC(NC(N)=O)C12CC3CC(CC(C3)C1)C2 (stereo not given)
    -0.2	101.4	i	0.85	-3.5	31.6	162.5
O=C(CCN1C(=O)C2CCCCC2C1=O)Nc1nc(-c2ccc(F)c(F)c2)cs1 (stereo not given)
    /	108.6	i	0.88	2.2	8.3	161.1
Nc1nc2ccccc2n1CCOc1ccccc1Cl
    0.7	106.0	i	0.95	-2.9	/	/
N#C/C(=C/c1ccc(N2CCCCCC2)o1)c1ccc(Cl)cc1
    0.1	90.3	i	0.87	-6.0	-53.9	117.0
CCN(C(=S)Nc1cc(S(=O)(=O)N2CCOCC2)ccc1Cl)c1cccc2ccccc12
    0.3	105.4	i	0.92	5.3	35.7	99.2
CNC(=O)C1CC(=O)N(Cc2ccc(OC)c(OC)c2)C(=Nc2ccc(OC)cc2)S1 (stereo not given)
    -1.9	107.4	i	1.01	-4.9	13.9	121.4
Cc1cccc(NC(=O)C2C(c3ccccc3)C2(Cl)Cl)c1 (stereo not given)
    /	98.7	i	0.95	-6.1	/	/
Cc1nnc(-c2cccc(C(F)(F)F)c2)nc1N1CCOCC1
    /	96.6	i	0.85	0.3	/	/
CC(C)C(c1nnnn1Cc1ccc2c(c1)OCO2)N1CCN(c2ccccc2)CC1 (stereo not given)
    -0.3	104.8	i	1.03	0.9	/	/
CCN(CC)CCNC(=O)C1c2cc(OC)c(OC)cc2C(=O)N(C)C1c1cccs1 (stereo not given)
    /	97.6	i	0.84	-0.4	53.3	118.6
CC1=CCn2c(=O)c3ccccc3c(=O)n2C1
    -0.4	98.4	i	0.98	-2.0	-61.5	94.9
CS(=O)(=O)N(Cc1ccc(F)cc1)Cc1nc2ccccc2c(=O)[nH]1
    -0.6	101.2	i	0.937	1.6	-33.3	133.9
O=C(O)CC1(CC(=O)Nc2ccc3ccccc3c2)CCCCC1
    -0.8	100.4	i	0.987	-9.8	33.3	134.1
O=C(NNC(=O)c1ccc(Br)o1)c1ccc(NC(=O)c2ccccc2)cc1
    /	100.9	i	1	-0.1	10.5	100.8
Cc1cccnc1NC(=S)Nc1ccc(Cl)c(Cl)c1
    /	115.8	i	0.92	4.3	38.1	168.9
COCCn1c(SC2CCCCC2=O)nnc1-c1ccncc1 (stereo not given)
    /	97.8	i	1	-3.4	/	/
COc1cccc(/C=N/NC(=O)c2ccccc2NC(=O)c2ccco2)c1OC
    /	95.2	i	0.97	/	/	/
O=C(c1ccc2c3n(nc2c1)-c1ccc(Cl)cc1CO3)N1CCOCC1
    /	101.1	i	0.84	/	/	/
O=C(NC(=S)Nc1ccccc1)c1csnn1
    -0.9	109.5	i	0.87	7.0	20.6	104.8
O=C(Nc1ccccc1)/C(=C\c1ccccc1)NC(=O)c1ccco1
    /	97.3	i	0.93	/	/	/
CC1(C)CC(=O)C(C=NCCN2CCN(C3CC(=O)N(c4ccc(Br)cc4)C3=O)CC2)=C(O)C1 (stereo not given)
    /	100.0	i	1.1	-6.1	-35.3	67.2
CC(=O)c1sc(NC(=O)c2ccc(C(C)(C)C)cc2)nc1C
    /	102.8	i	1.06	-2.4	/	/
COc1ccc(NC(=O)Cc2c(F)cccc2Cl)cc1
    /	106.2	i	1.03	4.7	50.0	104.5
N#C/C(C(N)=O)=C1/CCc2ccccc2N1
    -2.1	102.4	i	1.07	21.2	-22.6	78.7
Cc1ccc(/C=C(\C#N)c2nc3ccccc3[nH]2)s1
    -2.7	101.4	i	0.88	-0.3	96.2*	114.0*
CC(C)(C)NCC(O)COc1ccccc1C(=O)CCc1ccccc1 (stereo not given)
    -1.9	195.1	i	0.91	-3.4	-25.8	46.5
CC1(C)Cc2ccccc2C(Nn2cnnc2)=N1
    -0.8	106.2	i	0.72	-8.2	0.0	110.6
CSc1ccc(-c2cccc([N+](=O)[O-])c2)nn1
    /	99.2	i	0.98	2.9	54.3	86.3
O=C(O)c1cccc(CSc2nnc(COc3ccccc3)o2)c1
    -1.3	110.9	i	0.9	-5.9	-265.5	101.0
COc1ccc(-c2noc(CN(C)S(=O)(=O)c3ccccc3)n2)cc1OC
    -1.5	/	i	0.95	-7.3	-48.1	83.7
COc1ccccc1-c1ccc(=O)n(CC(=O)Nc2ccc(C(=O)N3CCCC3)cc2)n1
    -1.8	96.8	i	0.94	1.4	/	/
COC(=O)c1ccc(/C=N/NC(=O)CC(=O)NC(C)C)cc1
    -3.2	100.8	i	0.75	-10.6	-55.2	109.7
O=C(OCc1ccc(Cl)cc1)c1ccccc1C(=O)c1ccccc1
    -2.2	99.5	i	0.96	1.5	22.9	120.6
O=C(Nc1nc2n(n1)C(c1ccc(Cl)cc1)CC(c1ccc(Cl)cc1)N2)c1ccco1 (stereo not given)
    2.0	98.2	i	0.94	-2.5	/	/
Cc1cc(=O)[nH]c(SCC(=O)Nc2cc(S(=O)(=O)N(C)C)ccc2Cl)n1
    /	98.9	i	0.9	-6.5	/	/
COc1cccc(CNS(=O)(=O)c2cccc(S(=O)(=O)N3CCOCC3)c2)c1
    -3.7	96.2	i	1.03	-0.7	17.1	120.6
Cc1ccc(-c2nnc(NCc3nc4ccccc4[nH]3)c3ccccc23)cc1S(=O)(=O)N1CCOCC1
    -0.5	101.0	i	0.82	3.9	-203.2	167.3
COCCn1cnc2cc(C)c(C)cc21
    -1.8	101.0	/	/	0.0	/	/
O=C(N[C@@H](Cc1ccccc1)C(=O)O)c1c(F)c(F)c(F)c(F)c1F
    /	104.0	i	0.89	4.7	/	/
CCOC(=O)C1=C(C)N(C)C(C)=C(C(=O)OCC)C1c1ccsc1
    /	98.7	i	0.98	1.8	20.0	117.6
Cc1ccc(C(=O)c2ccccc2C(=O)OCC(=O)NC(=O)NC(C)(C)C)cc1
    /	100.5	i	0.9	1.8	/	/
Fc1cccc(CSc2ccc3nnc(-c4cccnc4)n3n2)c1
    /	111.2	i	0.86	7.2	-42.9	133.7
CCOC(=O)C1CCN(c2ccc([N+](=O)[O-])cc2)CC1
    /	114.3	i	0.97	-2.6	-16.7	113.7
CCOC(=O)c1ccc(N2C(=O)C(O)=C(C(C)=O)C2c2ccccc2)cc1 (stereo not given)
    -0.1	111.5	i	0.81	-7.0	-322.9	56.0
Fc1ccc(CNc2nc(-c3ccco3)cc(C(F)(F)F)n2)cc1
    -1.7	102.7	i	0.84	5.5	66.7	16.6
COC(=O)c1ccc(NC(=O)Cn2nc(-c3ccncc3)nc2SCC(=O)Nc2nccs2)cc1
    -1.2	96.4	i	0.88	-1.7	-34.1	107.0
Cc1cc(OCCn2cnc3ccccc3c2=O)ccc1[N+](=O)[O-]
    -1.3	106.9	/	/	-10.4	-30.8	104.0
COCCn1c(=S)[nH]c2cc(C(=O)NCCCN3CCOCC3)ccc2c1=O
    -2.7	169.6	i	0.95	-6.4	-107.1	118.3

Further compounds.
Screens in order: GALR2 ag	RGS16-Gao	HSV replic up	HSV replic up primary fold	PKD1 kinase inh	INS promoter inh	INS promoter inh cell count
CCOC(=O)c1sc(=NC(=O)C2CC2)n(C)c1C
    /	109.7	i	0.88	-5.5	-44.4	78.2
C=CCN=C(CC)C1=C(O)CCCC1=O
    -1.2	102.0	i	0.84	-5.6	-18.2	108.8
O=[N+]([O-])c1ccccc1N/N=C/c1cc2ccccc2nc1Cl
    -2.0	105.0	i	0.8	-5.2	-9.1	116.1
COc1cccc(N2CCN(Cc3nc4ccccc4c(=O)[nH]3)CC2)c1
    0.5	98.4	i	1.01	-6.1	/	/
CC(=O)c1ccc2noc(-c3ccccc3)c2c1
    /	121.0	i	1	1.3	20.0	121.2
Cc1ccc(F)c(NC=C2C(=O)OC(C)(C)OC2=O)c1
    -1.5	101.1	i	0.99	-5.3	-143.5	120.6
COC(=O)CCNS(=O)(=O)c1ccc2ccccc2c1
    -1.4	75.9	i	1.01	1.0	38.5	84.2
CCOC(=O)N1CCC(Nc2c(Nc3ccc(C)c(C)c3)c(=O)c2=O)CC1
    0.5	99.9	i	0.93	2.9	/	/
O=C(/C=C/c1ccc(S(=O)(=O)N2CCOCC2)cc1)NC(=S)NCCCn1ccnc1
    /	100.1	i	0.94	-4.3	/	/
CCc1ccccc1NC(=O)N[C@H](C(=O)O)C(C)CC (stereo not given in full)
    -2.8	103.0	i	1.03	-2.1	27.8	110.9
Cc1ccnc(N2C(=O)CSC2c2ccc(Cl)cc2)c1 (stereo not given)
    -1.4	108.6	i	0.91	2.1	50.0	127.4
O=C(NC(=S)NCCc1ccccc1)C1CCCCC1
    -0.7	103.7	i	1.04	9.9	-25.0	82.6
O=c1ccccn1Cc1c(F)cccc1Cl
    -0.4	118.2	i	1.07	0.2	46.7	35.2
COc1cc(/C=C2/C(=O)N=C(N)N2C)cc(OC)c1OC
    -2.3	106.7	i	0.97	-0.9	-25.8	112.6
O=C1C=C(O)C(n2cncn2)C(c2ccc(F)cc2)C1 (stereo not given)
    /	101.2	i	0.88	2.5	/	/
CCOC(=O)c1cc(-c2ccc(F)cc2)n(CC(=O)Nc2nccs2)c1C
    -1.6	/	i	0.88	3.2	/	/
COc1ccc(N2C(=O)/C(=C\c3ccco3)N=C2SCC(=O)NC(C)(C)C)cc1Cl
    0.3	100.1	i	0.87	6.2	33.3	147.4
O=C(N/N=C/c1ccc[nH]1)c1ccc([N+](=O)[O-])cc1
    -1.3	113.4	i	0.93	-0.8	-44.8	109.2
O=C(CCN1CCN(c2ccccc2)CC1)N/N=C/c1ccc(O)c(O)c1O
    /	86.5	i	1.02	4.3	/	/
COC(=O)c1ccccc1NC(=O)C1CCCN(S(=O)(=O)c2ccc(OC)cc2)C1 (stereo not given)
    -2.6	97.9	i	0.87	-11.8	12.5	160.8
CC(=O)c1ccc(NC(=O)c2c(C)nn(-c3ccccc3)c2Cl)cc1
    /	99.2	i	1.16	-1.0	/	/
O=C(NCCO)c1cccc(Nc2nc(-c3ccccc3)c3cc(Cl)ccc3n2)c1
    -1.5	100.9	i	0.86	-2.4	41.9	81.5

Just INS promoter inh, GALR2 ag and INS promoter inh cell count, for two of the compounds above:
| canonical_smiles | INS promoter inh | GALR2 ag | INS promoter inh cell count |
| --- | --- | --- | --- |
| CCOC(=O)c1cc(-c2ccc(F)cc2)n(CC(=O)Nc2nccs2)c1C | / | -1.6 | / |
| COc1ccc(N2C(=O)/C(=C\c3ccco3)N=C2SCC(=O)NC(C)(C)C)cc1Cl | 33.3 | 0.3 | 147.4 |
